VDR inh: inhibitors of human vitamin D receptor; VDR-SRC2-3 peptide fluorescence polarization, 2 h; Potency, µM, without a hit: max response, negative = inhibition, hits mostly inhibitors; 400,000 tested, 0.93% active; AID 504847; active = well fitted inhibition curve with a large enough effect; inconclusive = small, poorly fitted or top-dose-only effect, or another doubt; inactive = no such curve, though single readings can be large or run the other way; also: series mostly up to about 120 µM
Target sequence (P11473 whole entry, looked up): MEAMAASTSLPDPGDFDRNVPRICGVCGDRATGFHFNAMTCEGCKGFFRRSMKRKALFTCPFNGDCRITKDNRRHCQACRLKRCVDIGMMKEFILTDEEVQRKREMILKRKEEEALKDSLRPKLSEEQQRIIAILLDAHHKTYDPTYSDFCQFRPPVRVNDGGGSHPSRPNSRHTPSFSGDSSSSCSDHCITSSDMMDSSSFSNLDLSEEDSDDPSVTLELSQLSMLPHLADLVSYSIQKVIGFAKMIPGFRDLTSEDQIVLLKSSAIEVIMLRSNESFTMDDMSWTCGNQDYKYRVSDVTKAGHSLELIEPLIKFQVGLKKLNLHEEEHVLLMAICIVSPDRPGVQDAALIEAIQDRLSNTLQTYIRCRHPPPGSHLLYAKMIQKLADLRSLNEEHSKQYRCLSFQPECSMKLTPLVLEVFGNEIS
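Reagent solutions, kept cold and dark, are dispensed first; compounds are then pinned in at 23 nl, plates briefly spun, and incubated 2 h at ambient temperature. Inhibition of VDR–SRC2-3 peptide binding is read by fluorescence polarization.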
Starred values were filed as active, the others as inactive; ? = inconclusive; & = joins results of further samples. % is scaled to controls: 0 for no effect and ±100 for the full control effect; potency is read from the fitted curve at half-maximal effect.

compound	VDR inh
O=C(Cl)COCc1ccccc1	0%
COc1ccccc1-n1ccnc1SCC(=O)NC1CCCC1	-12%
CN(C)S(=O)(=O)c1ccc(NC(=O)COC(=O)c2ccccn2)cc1	6%
C[C@@H](C(=O)Nc1nc2ccc(F)cc2s1)N1C(=O)C2CC=CCC2C1=O (some centres undefined)	7%
CSCCC(NC(=O)c1ccccc1)C(=O)OCC(=O)Nc1ccc(C)c(Cl)c1 (centres undefined)	?
COc1ccccc1NC(=S)NCCc1ccc(Cl)cc1	4%
CC(=O)N1CCc2cc(S(=O)(=O)CCC(=O)NCc3ccc(F)cc3)ccc21	14%
COc1ccc(S(=O)(=O)N2CCOC2CNC(=O)C(=O)NCc2ccc(F)cc2)cc1OC (centres undefined)	9%
Cc1sc2ncn(CCn3cnc4sc(C)c(C)c4c3=O)c(=O)c2c1C	-4%
CC12CC(NC(=O)N1CCc1ccccc1)c1cc(Cl)ccc1O2 (centres undefined)	-1%
O=C(NCC1CCCO1)c1ccccc1NS(=O)(=O)c1ccc(F)cc1 (centres undefined)	0%
Cc1ccc(C2=Nc3ccccc3N(CC(=O)Nc3cccc(F)c3)C(=O)C2)cc1C	-1%
Cc1ccc(CNC(=O)c2cc(=O)c3ccc(C)cc3o2)cc1	15%
CSc1ccccc1NC(=O)CN(C)CC(=O)Nc1ccc(S(=O)(=O)N2CCCC2)cc1	-22%
CC(C)Cn1c(N2CCN(C(=O)/C=C/c3ccccc3)CC2)nc2ccccc21	-3%
Cn1c(N)c(C(=O)COC(=O)C2CCC(C(C)(C)C)CC2)c(=O)n(C)c1=O (centres undefined)	-14%
CC(C)(C)n1ncc2c(=O)n(Cc3ccc(Cl)cc3Cl)cnc21	11%
COCCCNC(=O)c1c(NC(=O)c2nc(S(C)(=O)=O)ncc2Cl)sc2c1CCCC2	3%
Cc1nn(-c2ccccc2)c(C)c1NC(=O)COc1ccc(Cl)cc1Cl	-5%
NC(=O)[C@H]1CC2(CC(c3cccc(NC(=O)COc4ccc(Cl)cc4)c3)=NO2)CN1C(=O)[C@H]1CCC(=O)N1 (some centres undefined)	5%
O=C(NCCc1ccccc1)c1ccc(NC(=O)C2CCC2)cc1	-10%
O=C(COC(=O)c1cccc(S(=O)(=O)N2CCc3ccccc3C2)c1)NCc1ccco1	-2%
CC(=O)Nc1ccc(C(=O)COC(=O)C2CCCCC2)c(F)c1	-4%
O=C(N/N=C/c1ccco1)c1ccc(NC(=O)c2ccccc2Cl)cc1	4%
COc1cc(C#N)ccc1OCC(=O)Nc1ccc(C)c(S(=O)(=O)N2CCOCC2)c1	3%
COC(=O)CSc1nc2ccccc2c(=O)n1C	2%
CC1CCCC(C)N1C(=O)COC(=O)CNC(=O)C12CC3CC(CC(C3)C1)C2 (centres undefined)	-11%
O=C(Nc1cccc(C(=O)O)c1)/C(=C\c1ccco1)NC(=O)c1ccc(Br)o1	3%
O=C(Nc1ccc2c(c1)oc1ccc(S(=O)(=O)N3CCCC3)cc12)C1CC1	-4%
COC(=O)CN(c1cccc(OC)c1)S(C)(=O)=O	0%
COc1nn(-c2ccccc2)c(=O)c(Cl)c1Cl	-15%
O=C1CCc2cc(NS(=O)(=O)c3ccccc3)cc3c2N1CCC3	8%
COc1ccc(-n2c(=O)c3c4c(sc3n3c(=S)[nH]nc23)COC(C(C)C)C4)cc1 (centres undefined)	6%
O=C(Cc1ccccc1)Nc1sc2c(c1C(=O)Nc1ccc(Br)cc1)CCC2	1%
COc1ccc(C2NC(c3ccc4c(c3)OCO4)=CC(c3ccccc3O)N2)cc1OC (centres undefined)	-21%
O=C(CCc1nnc(-c2ccc3c(c2)OCO3)o1)N1CCC(c2ccc(F)cc2)C1 (centres undefined)	-16%
CC1CCCCN1CCCn1c(=S)[nH]c2ccccc2c1=O (centres undefined)	6%
Cc1cc(C)c2nncn2n1	10%
Cc1ccc(C)c(-n2nnnc2SCC(=O)NCC2CCCO2)c1 (centres undefined)	-5%
Cc1ccc(C(=O)Nn2cnc3ccccc3c2=O)cc1C	11%
CN(C)S(=O)(=O)Oc1cccc(C(=O)Nc2ccc([N+](=O)[O-])cc2)c1	-6%
COc1ccc(NC(=O)C2CC(=O)N(Cc3ccco3)C2)cc1Cl (centres undefined)	-12%
COc1ccc(N2CC(C(=O)Nc3ccc(S(=O)(=O)N4CCCCC4)cc3)CC2=O)cc1 (centres undefined)	-1%
O=C(NC(=S)NCC1CCCO1)c1ccc(Cl)cc1 (centres undefined)	-20%
COc1ccccc1OCCCCn1c(C(C)O)nc2ccccc21 (centres undefined)	-7%
O=C(COC(=O)c1ccccc1NC(=O)c1ccco1)NC1CCS(=O)(=O)C1 (centres undefined)	14%
O=C(c1ccccc1)c1ccccn1	-1%
CCOc1ccc(/C=N/NC(=O)c2c(C)n(C)c3ccc(OC)cc23)cc1	-5%
O=C(NC(=S)Nc1ccccc1N1CCCC1)c1ccco1	-3%
Clc1cc2c(c(CSc3nc4ccccc4n4cccc34)c1)OCOC2	7%

A draw from above in order of molar mass, falling:
compound	VDR inh
Cc1ccc(C)c(-n2nnnc2SCC(=O)NCC2CCCO2)c1 (centres undefined)	-5%
Cc1ccc(C(=O)Nn2cnc3ccccc3c2=O)cc1C	11%
COC(=O)CSc1nc2ccccc2c(=O)n1C	2%

Following part.
compound	VDR inh
O=C(COC(=O)CNC(=O)c1cccc(OC(F)F)c1)NNC(=O)c1ccccc1	11%
N#CCCN(C(=O)CSc1ncccn1)c1ccc2c(c1)OCCO2	-6%
CCOC(=O)C1=C(N)OC2=C(C(=O)CCC2)C1c1sccc1C (centres undefined)	2%
CCOc1ccc(-c2ccc(NS(=O)(=O)c3cc(C)ccc3OC)cc2)nn1	12%
CCCCc1nnc(NC(=O)C(=O)OCC)s1	-2%
O=C(CCNC(=O)c1ccc([N+](=O)[O-])cc1)Oc1ccc(F)c(F)c1	-27%
COC(=O)c1cc(NC(=O)Cc2coc3cc(OC)ccc23)cc(C(=O)OC)c1	21%
NC(=O)c1nc(C2CCCCC2)nc2c1[nH]c(=O)n2-c1ccc(F)cc1	-15%
O=C(c1cc(C(F)(F)F)cc(C(F)(F)F)c1)N1CCC2(CC1)CN(c1ccccn1)C2	2%
CCOC(=O)c1[nH]cnc1C(=O)Nc1cccc(OC)c1	-14%&3%
N#CCCN(C(=O)COC(=O)c1ccc2c(c1)OCO2)c1ccccc1	8%
Cc1cccc(C)c1NC(=O)COC(=O)c1ccc2c(c1)OCO2	9%
CC(=O)Nc1ccc(NC(=O)c2oc3c(c2C)-c2nn(Cc4ccccc4Cl)cc2CC3)cc1	8%
Cn1c(N)c(C(=O)COC(=O)CCC(=O)c2ccc(F)cc2)c(=O)n(C)c1=O	13%
COc1ccccc1N(CC(O)CN1C(=O)NC(C)(C)C1=O)S(=O)(=O)c1ccc(C)cc1 (centres undefined)	-2%
COC(=O)Nc1ccc(=O)n(Cc2c(Cl)cccc2Cl)c1	-9%
CCC(C)NC(=O)C1CCCN(c2nc(C)cc(OC)n2)C1 (centres undefined)	6%
Cc1cc(=O)n2c(n1)NC(Nc1cccc(C)c1C)=NC2c1ccccc1 (centres undefined)	-9%
Cn1c(=O)c(C(=O)NCC2CCCO2)c(O)c2ccccc21 (centres undefined)	-2%
COC(=O)c1ccc(CN2CCN(Cc3ccc(F)cc3)C(CCO)C2)cc1 (centres undefined)	12%
COc1cc(OC)cc(C(=O)OCC(=O)Nc2cccc(C(C)=O)c2)c1	3%
C=CCC(=O)N(CC)CC1CCCN(CCc2cccc(F)c2)C1 (centres undefined)	-3%
CCc1c(C)nc2ncnn2c1NCCc1ccc(OC)cc1	-1%
COCCNC(=O)CNS(=O)(=O)c1ccc2nc(C)sc2c1	2%
Cc1ccc(/C=N/n2c(-c3ccccn3)n[nH]c2=S)o1	-28%
CC(=O)c1ccc(OCC(=O)N(C2CCCCC2)C2CCS(=O)(=O)C2)cc1 (centres undefined)	-9%
CCOc1ccc(C(=O)Nc2nc3ccccc3[nH]2)cc1OCC	-1%
Cc1ccc(C(=O)NCCc2nnc3ccc(SCC(=O)Nc4ccccc4F)nn23)cc1	-22%
Cc1cc(=O)n2[nH]c(COc3ccccc3)nc2n1	-6%
O=C(c1cccs1)N1CCN(CCc2ccccc2)CC1	12%
COc1ccc(N2CCCn3c2nc2c3c(=O)n(Cc3ccc(F)cc3)c(=O)n2C)c(OC)c1	3%
Cc1ccc(Cn2ccn(CC(=O)Nc3c(C)cc(C)cc3C)c(=O)c2=O)cc1	-7%
COC(=O)C/C=C/N(Cc1ccccc1OC)S(=O)(=O)CCl	-7%
Cc1nn(C)c(Cl)c1CN1CCN(C2CCCCC2)C(CCO)C1 (centres undefined)	14%
Cc1c(NC(=O)CC(C)C)c(=O)n(-c2ccccc2)n1C	17%
Cc1cnc(NC(=O)C2COc3ccccc3O2)s1 (centres undefined)	8%
Cc1cc2nccc(-c3ccc(F)cc3)n2n1	8%
CCCCN1C(=O)C(O)(c2c[nH]c3ccccc23)c2cc(Br)ccc21 (centres undefined)	-9%
Cc1ccc(NC(=O)COC(=O)c2cccc(OC(F)F)c2)cc1S(=O)(=O)N1CCCCC1	11%
COc1ccc2nc(NC(=O)CCNS(=O)(=O)c3ccc4c(c3)oc(=O)n4C)sc2c1	-1%
CCOc1ccccc1N1C(=O)c2ccccc2N/C1=C\N1CCN(C(=O)c2ccco2)CC1	-11%
COc1ccccc1NC(=O)CN1CCN(c2ccccc2OC)CC1	2%
CC(=O)C1=C(C)NC(=O)NC1c1cccs1 (centres undefined)	21%
CCSc1nnc2c(n1)[nH]c1c(C)cccc12	-6%
COc1ccc(C(=O)Nc2nnc(SCc3cc(=O)c4cc(C)cc(C)c4[nH]3)s2)cc1	5%
C#CCOCCOCCOCCNc1nc(N2CCN(C(=O)[C@H](CC(N)=O)n3cc(C(N)[C@H](C)CC)nn3)CC2)nc(N2CCN(C(=O)[C@H](CC(N)=O)n3cc(C(N)[C@@H](C)CC)nn3)CC2)n1 (some centres undefined)	-12%
CC1=C(C(=O)N2CCOCC2)C(c2cccc(C)c2)NC(=S)N1 (centres undefined)	-12%
CCn1nc(C(=O)OCC(=O)NCCN2C(=O)CSC2=O)c2ccccc2c1=O	4%
COC(=O)c1ccc(C2/C(=C(\O)c3cccc(OC)c3)C(=O)C(=O)N2CCCN2CCOCC2)cc1 (centres undefined)	-20%
O=C(COc1cccc(Cl)c1)Nc1nc(-c2ccc(S(=O)(=O)N3CCOCC3)cc2)cs1	-6%

6 entries from above in a different format:
VDR inh | smiles
11% | Cc1ccc(NC(=O)COC(=O)c2cccc(OC(F)F)c2)cc1S(=O)(=O)N1CCCCC1
-1% | COc1ccc2nc(NC(=O)CCNS(=O)(=O)c3ccc4c(c3)oc(=O)n4C)sc2c1
-11% | CCOc1ccccc1N1C(=O)c2ccccc2N/C1=C\N1CCN(C(=O)c2ccco2)CC1
2% | COc1ccccc1NC(=O)CN1CCN(c2ccccc2OC)CC1
21% | CC(=O)C1=C(C)NC(=O)NC1c1cccs1 (centres undefined)
-6% | CCSc1nnc2c(n1)[nH]c1c(C)cccc12

(cont.)
compound	VDR inh
O=C(Oc1ccc2ccccc2c1Cl)N1CCCC1	-8%
COc1ccc(OCCCC(=O)OCC(=O)Nc2ncc(Cl)cc2Cl)cc1	-1%
CCCCn1c(-c2cccc(C)c2)nc2cc3[nH]c(=O)c(C(C)C)nc3cc21	-2%
COc1ccc(Cn2c(C3CC3)nc3ccc(NC(=O)c4ccco4)cc3c2=O)cc1	7%
Cc1ccc(C2(c3ccccc3)NC(=O)N(CC(=O)NCc3ccco3)C2=O)cc1C (centres undefined)	?
Fc1ccc(-c2nc3ccccc3[nH]2)cc1	2%
Cc1ccc2oc(=O)n(CCCOc3ccccc3Cl)c2c1	-2%
NCC(c1ccccc1Cl)c1c[nH]c2ccccc12 (centres undefined)	12%
Cc1ccc(CN2CCC(CNC(=O)c3cnn(-c4ccccc4Cl)c3C3CCN(C(=O)OC(C)(C)C)CC3)CC2)cc1	-1%
Cc1noc(C)c1-c1nc(NCc2cccnc2)c2ccccc2n1	?
CCC(=O)/C=C1/Sc2ccc(OC)cc2N1CC	0%
CCOc1ccc(NC(=O)COC(=O)Cc2ccc(S(=O)(=O)N3CCOCC3)s2)cc1	-1%
CC(C)(C)c1ccc(OCCC(=O)OCC(=O)NC2CCCCC2)cc1	4%
COc1ccc(Nc2ccc(N3C(=O)CCCC3=O)cc2[N+](=O)[O-])cc1OC	-14%
O=C1CCC(=O)N1N1C(=O)C2C3c4ccccc4C(c4ccccc43)C2C1=O (centres undefined)	-7%
COc1ccc(-c2noc(CC(=O)Nc3ccc(C)c(F)c3)n2)cc1	0%
CCN(CC)CCCNC(=O)c1nn2c(C(F)(F)F)cc(-c3ccccc3)nc2c1Cl	-16%
COc1ccc(CCNC(=O)COC(=O)Cc2cc(OC)c(OC)c(OC)c2)cc1	2%
O=C(OCc1ccccc1)c1ccc(Br)o1	0%
O=C(CN1C(=O)c2cccnc2Oc2ccc(Cl)cc21)N1CCOCC1	-7%
O=C(Oc1ccccc1/C=C\C(=O)c1cc2ccccc2o1)c1ccccc1	?
CCN(CCCNC(=O)c1cc(Nc2ccccc2OC)nc2ccccc12)c1cccc(C)c1	-14%

Assay outcomes: PubChem BioAssay, National Center for Advancing Translational Sciences (NCATS)

These rows are one share of the data (hit frequency here may not be typical).
